TAR Tat displ: HIV-1 TAR-Tat binding disruption. z-score (concentration not given with the values). 100,000 tested, 0.6% active. HIV-1 TAR RNA, Tat peptide displacement FRET; active compounds read high. AID 1259389;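 also: score is relative to mean and SD of negative controls; some compounds called inactive have numbers as strong as hits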
CDC25B-CDK2 inh: human CDC25B-CDK2/CyclinA binding inhibition. P30305+P24941. HTRF CDC25B-CDK2/CyclinA binding, anti-His/anti-Flag; active compounds read high. z-score (test concentration not listed). 94,000 tested, 0.72% active. AID 1259370;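 also: score is relative to mean and SD of negative controls; strong numbers were not always called active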
An asterisk follows results filed as active; x = not tested or not shown.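 The calls were made as follows: active = z-score from 3 up in half or more of its runs; inactive = the rest.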

A first look, three compounds:
SMILES	TAR Tat displ	CDC25B-CDK2 inh
COc1ccc(NS(=O)(=O)c2ccc(N)cc2)cc1	-0.81	-2.7
O=C(NC1CCCC1)C1c2sc3ccccc3c2CC(=O)N1c1ccccc1Cl (configuration not stated)	0.47	-11
Cc1ccc2oc(=O)c3cc(C(=O)NC(C)CCc4ccco4)sc3c2c1 (configuration not stated)	0.61	-0.75

All compounds of this part, from the first entry:
SMILES	TAR Tat displ	CDC25B-CDK2 inh
COc1ccc(NS(=O)(=O)c2ccc(N)cc2)cc1	-0.81	-2.7
O=C(NC1CCCC1)C1c2sc3ccccc3c2CC(=O)N1c1ccccc1Cl (configuration not stated)	0.47	-11
Cc1ccc2oc(=O)c3cc(C(=O)NC(C)CCc4ccco4)sc3c2c1 (configuration not stated)	0.61	-0.75
CCOC(=O)c1c(C)[nH]c(NC(=O)NC(C)C)c1C	2.2	1.2
Cc1ccccc1-n1c(C)c(C)c2c1ncn1nc(-c3ccccc3)nc21	0.86	-0.62
NC(=O)C1(N2CCCCC2)CCN(c2ccc3nnc(-c4ccccc4)n3n2)CC1	-0.72	-0.46
O=C1c2cccnc2C(=O)N1Cc1ccc(F)cc1S(=O)(=O)Nc1ccc(Cl)cc1F	-1.1	x
Cc1[nH]c2ccccc2c1C(=O)CSc1nnc(C)n1-c1ccccc1	-0.11	-0.78
C=CCc1ccccc1OCc1nc2ccc(F)cc2[nH]1	0.67	0.87
Clc1ccc(-c2noc(CCCc3ccccc3)n2)cc1	3.2	-0.99

Rewritten bar-delimited: part of the list above
SMILES | TAR Tat displ | CDC25B-CDK2 inh
Cc1ccccc1-n1c(C)c(C)c2c1ncn1nc(-c3ccccc3)nc21 | 0.86 | -0.62
NC(=O)C1(N2CCCCC2)CCN(c2ccc3nnc(-c4ccccc4)n3n2)CC1 | -0.72 | -0.46

Next section.
SMILES	TAR Tat displ	CDC25B-CDK2 inh
COc1cc(/C(N)=N/O)cc(OC)c1OC	x	-1.5
Cc1ccc(-c2ccc(=O)[nH]n2)cc1S(=O)(=O)N1CCCC1	0.97	-1.9
CCn1c(-c2cccc(Br)c2)nc2ccccc21	-0.3	-1.1
Cc1ccc(SCC(=O)OCc2cc(=O)n3oc(C)cc3n2)cc1	0.61	x
CSc1cccc(NC(=O)CN(c2ccccc2)S(=O)(=O)N(C)C)c1	1.2	-0.77
COc1ccc(-c2cc(C)no2)cc1S(=O)(=O)N1CCN(Cc2ccc3c(c2)OCO3)CC1	0.94	x
CCCc1ccc(S(=O)(=O)N2CCN(c3cc(-c4ccccc4)ncn3)CC2)cc1	0.7	x
COc1cc(/C=c2/sc3nc4cc(C)c(C)cc4n3c2=O)cc2sc(=O)oc12	x	-2.6
Cc1ccn2cc(-c3cccc(S(=O)(=O)N4CCCC4)c3)nc2c1	4.1	-1.4
NC(=O)c1ccsc1NC(=O)CS(=O)(=O)c1ccc(Cl)cc1	0.36	x
COc1ccc(C2N(c3ccc(Cl)cc3)C(=O)C3CCCN32)cc1 (configuration not stated)	0.46	-1.8
Cc1ccc([N+](=O)[O-])cc1S(=O)(=O)Nc1ccc2c(c1)OCO2	x	-0.85
CCOc1ccc(-c2nc(C#N)c(NCc3ccc(C)cc3)o2)cc1	1.6	0.74
CCCC(=O)N1CCN(Cc2noc(CCC(=O)N(C)C3CCCCC3)n2)CC1	-6.5	x
CCC(=O)N1c2ccccc2CC1C(=O)NCCCN(CC)CC (configuration not stated)	1.2	x
C#CCOc1ccc(C2CC(=O)Nc3c(-c4ccccc4)csc32)cc1OC (configuration not stated)	1.5	x
Cc1ccsc1CCNS(=O)(=O)c1ccc(CN2C(=O)c3cccnc3C2=O)s1	-0.16	x
O=C(Oc1cccc(C(F)(F)F)c1)c1ccc(-c2cccs2)s1	x	-0.69
Cc1sc2nc(SCCC(C)C)nc(N)c2c1C	x	1.1
CCN(CC)CCNc1ncnc2onc(-c3ccccc3C)c12	0.09	x

In another format: 7 of the compounds above
Results follow in this order: TAR Tat displ	CDC25B-CDK2 inh
> CCCC(=O)N1CCN(Cc2noc(CCC(=O)N(C)C3CCCCC3)n2)CC1
  -6.5	x
> CCC(=O)N1c2ccccc2CC1C(=O)NCCCN(CC)CC (configuration not stated)
  1.2	x
> C#CCOc1ccc(C2CC(=O)Nc3c(-c4ccccc4)csc32)cc1OC (configuration not stated)
  1.5	x
> Cc1ccsc1CCNS(=O)(=O)c1ccc(CN2C(=O)c3cccnc3C2=O)s1
  -0.16	x
> O=C(Oc1cccc(C(F)(F)F)c1)c1ccc(-c2cccs2)s1
  x	-0.69
> Cc1sc2nc(SCCC(C)C)nc(N)c2c1C
  x	1.1
> CCN(CC)CCNc1ncnc2onc(-c3ccccc3C)c12
  0.09	x

(more compounds)
SMILES	TAR Tat displ	CDC25B-CDK2 inh
O=C(CCc1ccc(O)cc1)NNc1c([N+](=O)[O-])cc(C(F)(F)F)cc1[N+](=O)[O-]	x	-2.1
CC(=O)c1cccc(N2C(=O)C3C4c5ccccc5C(C(C)=O)(c5ccccc54)C3C2=O)c1 (configuration not stated)	x	-2.2
CS/C(NCC1CC1)=C(/C#N)C(=O)c1ccc(Cl)cc1	x	-1.7
NC(=O)c1sc2nc3c(cc2c1N)CCCC3	1.2	-0.24
CN(CC(O)Cn1c2ccccc2c2ccccc21)S(=O)(=O)c1ccc(Cl)cc1 (configuration not stated)	x	-0.97
O=C(C1CCCN1S(=O)(=O)c1cccc2nsnc12)N1CCN(c2cccc(Cl)c2)CC1 (configuration not stated)	-1	0.96
Cc1cc(Cl)ccc1NS(=O)(=O)c1ccc(-c2n[nH]c(C)c2C)s1	2.5	x
C=CCn1c(=O)[nH]c2nc3cc(NC(=O)CC)ccc3nc2c1=O	-6.1	0
Cc1ccc(CNC(=O)C2CCN(c3ccc(-c4cccs4)nn3)CC2)o1	-1.1	x
O=c1[nH]c2ccccc2nc1Nc1ccccc1	-9.1	-0.98

An excerpt of these results, with two lines to a compound.
Screens in order – TAR Tat displ	CDC25B-CDK2 inh
COc1cc(/C(N)=N/O)cc(OC)c1OC
→ x	-1.5
Cc1ccc(-c2ccc(=O)[nH]n2)cc1S(=O)(=O)N1CCCC1
→ 0.97	-1.9
CCn1c(-c2cccc(Br)c2)nc2ccccc21
→ -0.3	-1.1

Going on with the list:
SMILES	TAR Tat displ	CDC25B-CDK2 inh
O=C(Nc1c2c(nn1-c1cccc(Cl)c1)CS(=O)(=O)C2)c1ccc(C(=O)c2ccccc2)cc1	1.2	x
Clc1ccc(/C=C/c2nn3c(-c4ccco4)nnc3s2)cc1	0.48	-1
Cc1cc(=O)n2[nH]cnc2n1	x	-0.91
CC1=C(C(=O)OCC2CCCO2)C(c2ccccc2F)C2=C(CC(C)(C)CC2=O)N1 (configuration not stated)	0.14	-0.72
CC(C)CC(C(=O)Nc1nccs1)N1Cc2ccccc2C1=O (configuration not stated)	0.24	x
CCN1CCN(CCCN2C(=O)c3cc4oc(C)cc4n3CC2(C)C(=O)NC2CCCCC2)CC1 (configuration not stated)	3	x
Cc1cccc(CSc2nc3c(c(=O)[nH]2)C(c2cc(F)cc(F)c2)CC(=O)N3)c1 (configuration not stated)	2.5	1.5
O=C(Cc1cccs1)NCc1cn2ccccc2n1	1.8	-1.5
CN(C)CCNC(=O)c1ccc2c(c1)NC(=O)C(CS(=O)(=O)Cc1ccc(Cl)cc1)N2 (configuration not stated)	-2	x
O=c1[nH]c(SCc2ccccc2F)nc2c1cnn2-c1ccc(F)cc1	0.27	0.92
O=S(=O)(NCCc1cn2ccsc2n1)c1ccc2ccccc2c1	1	x
CCCCCc1nn2cc(-c3ccc(Cl)cc3)nc2s1	1.4	-0.59
CC1Cc2cc(S(=O)(=O)N3CCN(c4ccccc4)CC3)ccc2N1C(=O)C1CCC1 (configuration not stated)	0.04	x
COCCCNC(=S)N/N=C/c1cccs1	x	-1.8
CC(=O)N1CCc2cc(S(=O)(=O)CCC(=O)Nc3ccc(Br)c(C)c3)ccc21	1.4	x
O=c1c2ccccc2[nH]c(=S)n1CC1COc2ccccc2O1 (configuration not stated)	x	-1.3
Fc1ccc(Nc2nc(-c3ccccc3F)no2)cc1	1.3	x
CCOc1ccc(C2OC(c3cc(C4CC4)[nH]n3)=NN2C(C)=O)cc1 (configuration not stated)	1	x
Cc1ccccc1CN1c2ccccc2S(=O)(=O)c2ccccc21	-0.68	x
COc1ccc(N(C(=O)c2cccs2)C2C=CS(=O)(=O)C2)c(OC)c1 (configuration not stated)	x	-0.52
COC(=O)C(=NNc1cc(C(F)(F)F)ccc1OCC(F)(F)F)C(=O)OC	x	-3.3
NC(=O)c1cc(S(=O)(=O)N2CCN(c3ccccn3)CC2)cs1	0.84	x
COc1cc(OC)c(NS(=O)(=O)c2c(C)nc3sc4cc(C)ccc4n3c2=O)cc1Cl	2.8	x
CCOC(=O)c1cnc2c(-c3ccc(OC)c(OC)c3)cnn2c1N	1.1	3.1
O=C1C(Oc2ccccc2)C(c2ccc3c(c2)OCO3)N1CCc1ccc(Cl)cc1 (configuration not stated)	0.57	0.12
CCOc1ccc(Br)cc1CNCCCSc1nnnn1C	-0.14	-1.5
CNC(=O)N1c2ccccc2NC2=C(C(=O)CC(C)(C)C2)C1c1ccccc1 (configuration not stated)	2.5	x
CCN1CCCC1CNS(=O)(=O)c1ccc2[nH]c(=O)ccc2c1 (configuration not stated)	0.24	x
CCOC(=O)c1sc(NC(=O)C2CCCC2)c(C(=O)OCC)c1C	1.5	-0.27
CN1CCN(C2=NS(=O)(=O)c3ccccc32)CC1	1.1	-0.76
O=C(NC(=O)N1CCCC1)C1CCN(c2cnc3ccccc3n2)CC1	x	-1.1
CCOC(=O)C1(C(F)(F)F)N=C(c2cccnc2)OC(N2CCOCC2)=N1 (configuration not stated)	x	0.24
CC1CCC(NC(=O)C2(C)Cn3c(cc4occc43)C(=O)N2c2ccc(Cl)cc2)CC1 (configuration not stated)	5.3*	x
O=C1CC(Nc2ccc(N3CCOCC3)cc2)C(=O)N1c1ccccc1Cl (configuration not stated)	1.6	-2.8
Cc1cc(NC(=O)CN2CCOCC2)no1	x	-0.63
Cc1ccc(-c2nc(C(N)=O)c3[nH]c(=O)n(C4CCCCC4)c3n2)cc1	-1.6	x
O=S1(=O)CCC(S(=O)(=O)N(Cc2ccccc2)Cc2ccccc2)C1 (configuration not stated)	0.99	0.34
CCC(C)C(N)C(O)N1CCSC1 (configuration not stated)	0.55	x
O=C(NC1CCCc2ccccc21)C1CCN(c2c(N3CCCC3)c(=O)c2=O)CC1 (configuration not stated)	1.5	-0.53
O=C(Nc1ccc(OCc2cc(=O)n3c4c(sc3n2)CCCC4)cc1)C1CCCCC1	-0.11	-0.26
CCC1c2ccc(C)n2CCN1C(=O)Nc1ccc(F)cc1F (configuration not stated)	-8.1	-2
Cc1ccc2c(c1)NC(c1cccnc1)=NC(c1ccccc1)=N2	0.13	-0.48
Cc1ccccc1C1NC(=O)NC2=C1C(=O)CC(C)(C)C2 (configuration not stated)	x	-0.24
Cc1onc(-c2ccccc2)c1CNC(=O)c1ccccc1	x	-1.2
CCC(C(=O)N1CCNc2ccccc2C1)N1C(=O)COc2ccccc21 (configuration not stated)	2	-1.9
COc1ccc(-c2c(C)n[nH]c2C)c(C(=O)O)c1	x	-1.6
Cc1ccc(SCc2cc(=O)n3c(C)csc3n2)cc1	0.45	-0.47
O=C(O)c1cccc2c1C(=O)N(Cc1cccnc1)C2	2	-1.9
O=C(CN1C(=O)C2C3C=CC(C3)C2C1=O)N1CCN(c2ccccn2)CC1 (configuration not stated)	x	-2.1
COC(=O)C1=C(C)NC(=O)NC1c1ccc(OC)cc1OC (configuration not stated)	x	-0.44
Carrying on.
SMILES	TAR Tat displ	CDC25B-CDK2 inh
COc1cc(OC)c(-n2cc(-c3ccc(Cl)cc3)[nH]c2=O)cc1Cl	x	-0.19
COC(=O)c1c(NC(=O)COc2ccccc2Br)sc2c1CCC2	-0.35	-2.9
COc1ccc2[nH]c(=O)c(CN(c3ccccc3)S(=O)(=O)c3ccccc3)cc2c1	1.9	-7.1
CCN1C(=O)N(c2cccc(Cl)c2)S(=O)(=O)c2ccccc21	2.4	x
Fc1ccc(-c2csc3ncnc(NCCCN4CCOCC4)c23)cc1	0.73	x
CNC(=O)Nc1ncc(C)nc1C	x	-2.4
COc1ccc(CN2C(=O)C3C(c4ccccc4)OC4(C(=O)c5ccccc5C4=O)C3C2=O)cc1 (configuration not stated)	0.04	-1.4
CCN1CCCC1CNC(=O)c1cnn2c3c(cnc12)CCCCCC3 (configuration not stated)	0.38	x
O=C(NOCC1CC1)c1cc(Br)c(F)c(F)c1Nc1ccc(I)cc1Cl	x	0.29
COC(=O)CSc1nnc(-c2ccc(Br)cc2)o1	2.1	-0.59
Cc1ccccc1Nc1nc(NCc2ccco2)c2ccccc2n1	-0.17	6*
CNc1ccc(S(=O)(=O)O)cc1	x	-1.4
Cc1[nH]c2ccc(Br)cc2c(=O)c1CN1CCCCC1	-0.67	-2.4
COc1cccc(C2Sc3ccccc3NC3=C2C(=O)c2ccccc23)c1 (configuration not stated)	-5.5	-0.59
O=C(Nc1nnc(SCc2nnc(-c3ccccc3)o2)s1)C1CCCCC1	1.9	x
COc1cc(C(CC(=O)O)CC(=O)Nc2cc(C)on2)cc(OC)c1OC (configuration not stated)	x	1.1
CN(C1CCCCC1)C(CNS(=O)(=O)c1ccccc1)c1ccccc1 (configuration not stated)	1.5	-1.8
Cc1nc(N2CCCC2)c2c(C)c(C(=O)O)sc2n1	1.8	x
O=C(O)CCc1nc(N2CCCCC2)c2c(-c3ccc(F)cc3)noc2n1	1.5	-1.3
O=C(C1CC(c2ccccc2F)=NO1)N1CCOCC1 (configuration not stated)	0.55	0.73
O=C(Nc1ccc(S(=O)(=O)N2CCCCC2)cc1)c1ccco1	x	-1.8
Cc1c(C(=O)N2CCC(C)CC2)c(S(=O)(=O)NC(C)(C)C)c(C)n1C	1.4	x

Screening results deposited in PubChem by Center for Chemical Genomics, University of Michigan.

Not a hit list. Share with any hit: about 0.9%.
